VDR inhibitor: blocks the human vitamin D receptor | P11473 | VDR-SRC2-3 peptide fluorescence polarization, 2 h | Potency, µM, inactives show max response, negative = inhibition, hits mostly inhibitors | 400,000 tested, 0.93% active | AID 504847; active = well fitted inhibition curve with a large enough effect; inconclusive = small, poorly fitted or top-dose-only effect, or another doubt; inactive = no such curve, though single readings can be large or run the other way; note: series mostly up to about 120 µM
Target sequence (P11473 whole entry, looked up): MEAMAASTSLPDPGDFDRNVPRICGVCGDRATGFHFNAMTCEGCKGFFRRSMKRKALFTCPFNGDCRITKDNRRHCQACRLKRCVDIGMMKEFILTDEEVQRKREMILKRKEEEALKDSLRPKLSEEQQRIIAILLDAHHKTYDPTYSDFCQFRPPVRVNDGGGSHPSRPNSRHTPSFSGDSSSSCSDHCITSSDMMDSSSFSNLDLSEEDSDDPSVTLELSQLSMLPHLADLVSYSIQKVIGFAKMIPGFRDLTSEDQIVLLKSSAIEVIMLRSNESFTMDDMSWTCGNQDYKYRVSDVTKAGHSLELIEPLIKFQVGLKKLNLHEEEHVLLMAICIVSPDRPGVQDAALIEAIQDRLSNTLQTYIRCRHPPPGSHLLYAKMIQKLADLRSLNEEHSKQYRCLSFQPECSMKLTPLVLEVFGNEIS
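Compounds are added to VDR with labelled SRC2-3 coactivator peptide and held 2 h at room temperature. Inhibition of the VDR–peptide interaction is then read as a change in fluorescence polarization.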
* marks the source's active call; other numbers are inactive results; ? = inconclusive; & = joins results of further samples. % is set by controls: 0 for no effect and ±100 for the full control effect; potency is the fitted concentration of half-maximal effect. An excerpt (hit frequency here may not be typical).

SMILES	VDR inhibitor
Cc1noc(C)c1C(=O)N1CCC[C@@]2(CCN(c3ccccn3)C2)C1	11%
C(=N\N(c1ccccc1)c1ccccc1)/c1ccccn1	9%
O=C(CN1CCN(c2ccccc2O)CC1)NC(=O)NC1CCCC1	-2%
Cc1cccc(C(=O)NNC(=O)c2ccc(F)cc2)c1	-3%
Cc1cc(C)nc(SCC(=O)c2ccc(O)cc2O)n1	-1%
CCN(CC)CCCNC(=O)c1ccc(CS(=O)(=O)c2ccccc2OC)o1	-8%
Cc1c(C(=O)NC(=S)Nc2ccc(NC(=O)c3cccs3)cc2)oc2ccccc12	-19%
CN(Cc1cccc(C(F)(F)F)c1)C(=O)C1CCC(=O)N(CC2CCCCC2)C1 (stereo unspecified)	-21%
CCOC(=O)c1cc(OC(=O)c2ccccc2OC)n(-c2ccccc2)n1	14%&8%
O=C(Cn1cnc2c(nnn2Cc2ccc(Cl)cc2)c1=O)N1CCCc2ccccc21	-6%
CCOc1ccc(NC(=O)CSc2oc(-c3cccs3)nc2S(=O)(=O)c2ccc(Cl)cc2)cc1	-1%
Cc1ccccc1C(=O)Nc1ccccc1-n1cccc1	9%
Cc1ccc(C)c(OCC(=O)NCC(C)(C)N2CCOCC2)c1	21%
CCCCn1cc(S(=O)(=O)c2cc(C)ccc2C)c(=O)c2cc(F)c(F)cc21	-12%
COc1ccc(OC)c(/C=N\NC(=O)c2ccc(=O)n(C)c2)c1	-6%
O=C(Cc1ccccc1)c1ccc(O)cc1O	-15%
Cc1ccc(-c2noc(CCC(=O)Nc3ccccc3N3CCN(C)CC3)n2)cc1	-8%
C[C@H]1[C@H](C)CC[C@]2(C=O)CC[C@]3(C)C(=CC[C@@H]4[C@@]5(C)C[C@@H](O)[C@H](O)[C@@](C)(CO)[C@@H]5CC[C@]43C)[C@H]12	0%
CCCN(CCC)CCNC(=O)c1cc(Sc2ccc(Cl)cc2)nc2ccccc12	1%
CC(NC(=O)c1ccccc1)C(=O)OCC(=O)c1c(N)n(C)c(=O)n(C)c1=O (stereo unspecified)	-2%
N#Cc1cccc(NC(=O)C2CCN(c3nc(-c4ccc(Cl)cc4)no3)CC2)c1	7%
CC(C)NC(=O)N1CC2(CCN(C(=O)c3ccco3)CC2)C1	-12%
Cc1ccnc(NC(=O)c2cccc3ccccc23)c1	6%
CCOc1ccc(C(=O)Nc2cccc(C(=O)OCc3cc(=O)n4nc(C5CC5)sc4n3)c2)cc1	6%
CCc1nnc(NC(=O)c2cccc(S(=O)(=O)N(C)c3ccccc3)c2)s1	15%
COc1ccc(C2C(C#N)=C(N)Oc3cc(C)[nH]c(=O)c32)cc1OC (stereo unspecified)	-12%
O=C(CSc1nnc(Cc2ccccc2)o1)c1ccc(F)cc1	16%
COc1cc(C2C3=C(Nc4nc(N)[nH]c(=O)c42)c2ccccc2C3=O)ccc1O (stereo unspecified)	-17%
Cn1c(=O)c(-c2ccc(Cl)cc2)nc2cnc(OCc3ccccc3)nc21	1%
COc1c(Cl)cccc1-c1cn2ccc(C)cc2n1	-7%
Cc1ccc2c(Cl)c(C(=O)NCc3cccnc3)sc2c1	6%
COc1ccc(CC(=O)NNC(=O)CSc2nnc(C)n2-c2ccccc2)cc1	-2%
CC1CN(c2ccc([N+](=O)[O-])cn2)CC(C)O1 (stereo unspecified)	-14%
Cc1ccc(C(=O)OCC(=O)N2c3ccccc3NC(=O)C2(C)C)cc1S(=O)(=O)N1CCCCC1	-3%
Cc1cc(C)nc(NC(=O)/C=C/c2ccc(Cl)cc2)n1	-4%
N#Cc1c(NC(=O)CSc2n[nH]c(N)n2)oc(-c2ccccc2)c1-c1ccccc1	-10%
CC1(C)SC2c3ccccc3C(=O)N2C1C(=O)O (stereo unspecified)	-29%
CCC(=O)N(C)C(c1ccccc1Cl)c1nnnn1-c1c(C)cccc1C (stereo unspecified)	-7%
O=C(Nc1cc(Cl)ccc1F)C1=COCCO1	19%
O=C(NCC1CCCCC1)c1nnc(C(=O)NCC2CCCCC2)c2c1[nH]c1ccccc12	8%
CC(C)(CN1CCc2ccccc2C1)NS(=O)(=O)c1ccccc1	-13%
CC(=O)O[C@@H]1[C@@H](O)CN[C@@H]1Cc1ccccc1	?
CCOc1ccc(NC(=O)Cn2c(=O)n(CC(=O)NCCc3ccccc3)c(=O)c3sccc32)cc1	-12%
Cc1nn(CC(=O)NCCc2ccccc2)c(=O)c2cc3occc3n12	-14%
O=C(CN(C(=O)CCC(=O)Nc1nccs1)c1ccccc1F)NCc1ccccc1	-13%
O=C(CN(CCc1ccccc1)S(=O)(=O)c1ccc(Cl)cc1)N/N=C/c1ccc2c(c1)OCO2	-15%
CCCCCCNC(=O)Cc1c(O)c2ccccc2[nH]c1=O	-5%
COC(=O)c1ccc(C(c2c(C)n(C)n(-c3ccccc3)c2=O)c2c(C)n(C)n(-c3ccccc3)c2=O)cc1	-3%
CC1C(C#N)=C(N)OC2=C1C(=O)CC(c1ccccc1)C2 (stereo unspecified)	13%
O=C(COc1ccccc1O)NNc1ccccc1	-8%

7 compounds from above, sorted by length of the SMILES, descending:
SMILES	VDR inhibitor
COC(=O)c1ccc(C(c2c(C)n(C)n(-c3ccccc3)c2=O)c2c(C)n(C)n(-c3ccccc3)c2=O)cc1	-3%
Cc1nn(CC(=O)NCCc2ccccc2)c(=O)c2cc3occc3n12	-14%
CC(=O)O[C@@H]1[C@@H](O)CN[C@@H]1Cc1ccccc1	?
CC(C)(CN1CCc2ccccc2C1)NS(=O)(=O)c1ccccc1	-13%
CC1C(C#N)=C(N)OC2=C1C(=O)CC(c1ccccc1)C2 (stereo unspecified)	13%
CCCCCCNC(=O)Cc1c(O)c2ccccc2[nH]c1=O	-5%
O=C(COc1ccccc1O)NNc1ccccc1	-8%

The list goes on:
SMILES	VDR inhibitor
CCOC(=O)c1cnc(N)nc1-c1ccccc1	-10%
Cc1cccc(NC(=O)c2sc(NC(=O)COc3ccccc3)c(C#N)c2C)c1C	-13%
CN(Cc1ccccc1)C(=O)c1cccc(NC(=O)Cc2ccc(NC(=O)C3CCCN(C(=O)C4CCCCC4)C3)cc2)c1 (stereo unspecified)	-7%
Cc1ccc(Cl)cc1-n1ncc2c(NC3CCCCC3)ncnc21	17%
CC(=O)Nc1cc(-c2nn3c(C)nnc3s2)ccc1C	-8%
COc1ccc(C)cc1NC(=O)c1nnn(CC(=O)Nc2c(C)cccc2C)c1N	18%
Cc1cc(C)c(S(=O)(=O)c2cccc(Br)c2C)c(=O)[nH]1	6%
O=C(NCc1ccc(F)cc1)C1CCCN(C(=O)Nc2ccccc2)C1 (stereo unspecified)	5%
CCOC(=O)C1(Cc2cccc(OC)c2)CCN(Cc2cnc(N)nc2)CC1	-2%
Cc1ccc(C2CC(=O)Nc3cc4c(cc32)OCCO4)cc1 (stereo unspecified)	-6%
NS(=O)(=O)c1cccc(NC(=O)COC(=O)c2ccccc2SCC(=O)N2CCCC2)c1	7%
Cc1ccc(S(=O)(=O)NNC(=O)c2ccc(F)cc2)cc1	-20%
Cc1ccc(NC(=O)COc2ccccc2C#N)cc1S(=O)(=O)N1CCCCCC1	-4%
CCOC(=O)c1cccc(N2C(=O)Nc3ccccc3N2O)c1	-5%
Cc1cc(/C=C2/C(=N)N3C(=NC2=O)SN=C3S(C)(=O)=O)c(C)n1-c1ccccc1	?
Cc1csc(NC(=O)CSc2nnc(-c3ccoc3C)o2)n1	17%
Cc1nc(-c2nc(-c3c(C(=O)NNC(=O)Nc4cccc(Cl)c4)noc3C)cs2)cs1	-8%
CCn1cc(CN2CCN(Cc3ccsc3)C(CCO)C2)cn1 (stereo unspecified)	-8%
COc1ccccc1NS(=O)(=O)c1cccc(C(=O)NNC(=O)C(C)NC(=O)c2ccco2)c1 (stereo unspecified)	-8%
C=CCn1c(O)c(N=NC(=S)Nc2cccc(C)c2)c2ccccc21	-5%
CC1Cc2ccccc2N1C(=O)CN(C)CC(=O)Nc1cccc(F)c1 (stereo unspecified)	-7%
COc1cc(/C=C/C(=O)OCC(=O)NC(=O)NC(C)(C)C)cc(OC)c1OC	-1%
COc1ccc2c(c1)CCCC21NC(=O)N(CC(=O)c2cc(F)ccc2F)C1=O (stereo unspecified)	?
COc1ccc(CNC(=O)COC(=O)CCCOc2ccc(Cl)cc2Cl)cc1	-5%
COc1ccc(Br)cc1CN(C)CC(O)COc1ccc(Br)cc1 (stereo unspecified)	-2%
CSc1ncc(CN2CCc3c([nH]c4ccccc34)C2c2cccc(C)n2)cn1 (stereo unspecified)	-5%
CCOc1ccccc1C1C(C#N)=C(N)Oc2cc(C)n(C)c(=O)c21 (stereo unspecified)	-5%
COc1ccc2c(c1)NC(c1ccc(N(C)C)cc1)c1cccn1-2 (stereo unspecified)	4%
Cc1ccc(C(=O)N/N=C/c2cccc(OC(=O)/C=C/c3ccco3)c2)cn1	-12%
CCOc1ccccc1NC(=O)c1ccc(F)c(S(=O)(=O)N2CCN(c3ccc(F)cc3)CC2)c1	4%
Cc1cc(OCC(=O)N2CCC[C@@H]2C(=O)O)c2c(C)c(C)c(=O)oc2c1	1%
CCC(C)NC(=O)c1ccc(CN2CCc3ccccc3C2)cc1 (stereo unspecified)	10%
CCCNC(=O)c1ccc(-c2nc(CS(=O)(=O)c3ccc(C)cc3)c(C)o2)cc1	2%
COCCN(CCOC)Cc1c(C)[nH]c2ccccc2c1=O	10%
C/C(CC(=O)NCc1ccco1)=N\NC(=O)c1ccc([N+](=O)[O-])cc1Cl	11%
COc1ccc(OCC(=O)Nc2ccc(N3CCC(C)CC3)cc2)cc1	4%
NS(=O)(=O)c1ccc(CNS(=O)(=O)c2ccc(Cl)nc2)cc1	-2%
CCOC(=O)C1=C(C)NC(=O)NC1c1ccc(Cl)cc1Cl (stereo unspecified)	8%
COc1nc(=O)n(C2OC(CO)C(O)C2O)cc1C (stereo unspecified)	-12%
Cc1cccc(-c2nc(CC(=O)Nc3cccc(S(=O)(=O)NC4=NCCC4)c3)cs2)c1	17%

Quoted at random: three entries already listed.
SMILES	VDR inhibitor
Cc1cc(OCC(=O)N2CCC[C@@H]2C(=O)O)c2c(C)c(C)c(=O)oc2c1	1%
Cc1cccc(-c2nc(CC(=O)Nc3cccc(S(=O)(=O)NC4=NCCC4)c3)cs2)c1	17%
C/C(CC(=O)NCc1ccco1)=N\NC(=O)c1ccc([N+](=O)[O-])cc1Cl	11%

Remaining list, next part
SMILES	VDR inhibitor
O=C(CN1CCCCC1)Nc1ccc(C(F)(F)F)cc1Cl	5%
Cc1ccc(Cl)cc1NC(=O)Cn1nc2c(cc1=O)CC(C)CC2 (stereo unspecified)	9%
N#C/C(=C\c1cn(CCOc2ccccc2F)c2ccccc12)C(=O)NCc1cccs1	-12%
Cc1cc(C)c(C)c(S(=O)(=O)N2CCCN(C)CC2)c1C	0%
Cc1ccc(C(=O)N/C(=C/c2ccco2)C(=O)N2CCOCC2)cc1	-10%
O=C1CCC(=O)N1OCCOc1ccc(Cl)c2ccccc12	10%
CC(Cc1ccccc1)N/C=C1\CC(=O)NC1=O (stereo unspecified)	-12%
Cc1ccc(S(=O)(=O)Cn2nnnc2C(C(C)C)N2CCSCC2)cc1 (stereo unspecified)	-7%
CC(C)(O)c1[nH]c2ccc(C(F)(F)F)cc2c1C(C)(C)O	5%
COc1ccccc1C(=O)NC(CCSC)C(=O)NNC(=O)c1csc(N2CCOCC2)n1 (stereo unspecified)	-14%
CCN(CC)CC(C)(C)C(=O)/C=C/c1ccc(/C=C/C(=O)C(C)(C)CN(CC)CC)cc1	?
CCCN(CCC)CC(=O)NCC1(c2ccccc2)CCOCC1	0%
CCCOc1ccc(-c2nc(N3CCN(CC)CC3)c3ccccc3n2)cc1	-17%
O=c1ccc2ccc(O[C@@H]3O[C@H](CO)[C@@H](O)[C@H](O)[C@H]3O)c(O)c2o1	?
CCCCCC(=O)NC(=S)Nc1ccc(Br)cc1C	-9%
CCc1ccc2oc(-c3ccc(NC(=O)c4cccc(Cl)c4Cl)cc3)nc2c1	-25%
COC(=O)c1cccc(NC(=O)C2COc3ccccc3O2)c1 (stereo unspecified)	-4%
CC(=O)c1cccc(NC(=O)CNC(=O)Cc2ccccc2)c1	-11%
COc1ccc(S(=O)(=O)N(C)C[C@H]2Oc3ccc(NC(=O)CCC(F)(F)F)cc3C(=O)N([C@H](C)CO)C[C@@H]2C)cc1	7%
C#CCOCCOCCOCCNc1nc(N2CCOCC2)nc(N2CCN(C(=O)[C@H]([C@@H](C)CC)n3cc(CCCN=C(N)N)nn3)CC2)n1	-7%
COc1ccc(-n2c(Cc3cccn3C)nnc2SCC(=O)Nc2cccc(NC(C)=O)c2)cc1	-2%
CC1CCCCC1Nc1ncnc2sccc12 (stereo unspecified)	0%
COc1ccc(Cl)cc1NC(=O)c1cc(-c2ccccc2)on1	-15%
NC(=O)C(c1ccc(Sc2ccccc2)nn1)c1ccc(Cl)cc1Cl (stereo unspecified)	-20%
Cc1ccc(S(=O)(=O)N(C)C)cc1[N+](=O)[O-]	10%
Cc1cccc(NC(=O)c2nc[nH]c2C(=O)NCCCCCCNC(=O)c2[nH]cnc2C(=O)Nc2cccc(C)c2)c1	-23%
CCN1CCN(C(=O)N2CCOCC2)CC1	-2%
COc1ccc(OC)c(CCNC(=O)c2ccc3c(=O)[nH]c4c(C(=O)NC(C)C)sc(=S)n4c3c2)c1	-24%
COc1ccc(/C(C)=N/NC(=O)CNC(=O)/C=C\c2ccco2)cc1	-2%
COc1ccc2ncc3c(-c4ccc(C)c(C)c4)nn(CC(=O)NC4CCCC4)c3c2c1	5%
Cc1ccc(NC(=O)c2ncn(CCCN(C)CCc3ccccn3)n2)cc1C	1%

Grouped by structure: those above containing a COOH group.
SMILES	VDR inhibitor
CC1(C)SC2c3ccccc3C(=O)N2C1C(=O)O (stereo unspecified)	-29%
Cc1cc(OCC(=O)N2CCC[C@@H]2C(=O)O)c2c(C)c(C)c(=O)oc2c1	1%

Bioassay records from PubChem BioAssay.
